# Assay outcomes: PubChem, several laboratories
# HNF4A DNA FP: change in binding of human HNF4A to DNA, primary screen, biochemical, fluorescence polarization, FITC-DNA; Hepatocyte nuclear factor 4-alpha (Homo sapiens), P41235; 1 h; activity change, % at 10 µM; hit rate 0.3% among 360,000; in the data active = activity change above about 30%, passing the limit was not always enough;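 also: controls were the assay level and a saturating level of protein; the project sought stronger binding though the title names inhibitors; some compounds called inactive have numbers as strong as hits; positive values seem to mean higher polarization but the record does not say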
# Target sequence (P41235 whole entry, looked up): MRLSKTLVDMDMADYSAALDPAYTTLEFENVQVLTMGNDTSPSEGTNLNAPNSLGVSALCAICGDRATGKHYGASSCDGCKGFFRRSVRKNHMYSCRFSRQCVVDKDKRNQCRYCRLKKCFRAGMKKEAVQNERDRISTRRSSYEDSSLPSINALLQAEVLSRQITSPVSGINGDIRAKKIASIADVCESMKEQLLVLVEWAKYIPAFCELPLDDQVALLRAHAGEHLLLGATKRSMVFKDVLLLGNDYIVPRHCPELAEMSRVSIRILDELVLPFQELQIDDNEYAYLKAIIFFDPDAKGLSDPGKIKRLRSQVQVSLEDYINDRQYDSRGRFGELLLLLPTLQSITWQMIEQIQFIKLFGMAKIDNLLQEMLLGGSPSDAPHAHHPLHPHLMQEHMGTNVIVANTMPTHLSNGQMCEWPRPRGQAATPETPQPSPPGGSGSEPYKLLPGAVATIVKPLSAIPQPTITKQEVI
# ALR H2O2 inh: inhibitors of human ALR sulfhydryl oxidase, primary screen, biochemical, H2O2 detection, HRP-luminol luminescence, single point; purified ALR, DTT oxidation; inhibition, % (test concentration not listed); hit rate 3.8% among 290,000; AID 485317, 2010;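 active = mean and each replicate at 75% or more; inconclusive = only one of the two met; inactive = neither met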;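 also: stock transfer was 7.5 nL into about 7.5 µL; 0% = neutral wells and 100% = wells with inactivated enzyme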
# Target sequence (P55789 whole entry, looked up): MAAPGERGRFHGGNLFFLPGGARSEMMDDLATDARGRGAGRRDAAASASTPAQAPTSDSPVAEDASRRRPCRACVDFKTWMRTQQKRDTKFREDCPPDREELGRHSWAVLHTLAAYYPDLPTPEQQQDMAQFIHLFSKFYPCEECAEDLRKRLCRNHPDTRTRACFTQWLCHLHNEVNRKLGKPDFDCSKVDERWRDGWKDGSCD
# AF4-AF9 inh: inhibitors of AF4 peptide binding to AF9, primary screen, biochemical, AlphaScreen, biotin-AF4 peptide, FLAG-AF9, single point; inhibition, % at 10 µM; hit rate 0.47% among 350,000; AID 651704, 2012;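 active = every replicate reaching a set inhibition limit, whatever the replicate mean, cut at about 25% in these data; inconclusive = mean inhibition reaches that limit but some replicates miss it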;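 also: 0% = plate neutral control median and 100% = total signal loss; the record names both 10 and 1 µM as test concentration; the first replicate is given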
# Vif A3G: inhibitors of Vif binding to APOBEC3G peptide, primary screen, biochemical, TR-FRET, GST-Vif 1-94, biotin-A3G peptide, dose response retest (AID 1117319); Virion infectivity factor (Human immunodeficiency virus type 1 group M subtype B (isolate …; TR-FRET GST-Vif / biotin-A3G peptide binding; higher % means a stronger effect; test concentration not given here; strong numbers were not always called active; one-dose inhibition, %; IC50 in µM for titrated hits; hit rate 0.57% among 260,000;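 active = above the screen mean plus three standard deviations and confirmed in dose response; inconclusive = results disagree or hit not tested in dose response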;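 also: Vif residues 1-94 fused to GST binding biotinylated APOBEC3G peptide 110-148; 0% = full assay without inhibitor and 100% = GST in place of GST-Vif; retest series ran down from 100 µM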
# rRNA inh HTS: reduced GFP signal of wild-type E. coli, primary screen, bacterial rRNA inhibitor project, GFP/RFP fluorescence, OD600, single point | E. coli WT GFP vs humanized-ribosome RFP mutants, 24 h; stronger effect = lower value; DMSO median 0, no signal -100 | GFP signal change (wild-type ribosome), % (concentration not given with the values) | hit rate 1.6% among 350,000;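 active = significant combined selectivity score with lowered wild-type GFP, culture density cut under 30%, mutant RFP and density less affected; inactive = any of these conditions unmet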; also: one replicate is shown; some compounds called inactive have numbers as strong as hits
# FGF22 binding: binders of human FGF22 protein, primary screen, FGF22 synaptogenesis inhibitor project, biophysical, thermal shift, single point | hit rate 1.5% among 340,000 | calls only at 9.99 µM | AID 651658, 2012 | Fibroblast growth factor 22 (Homo sapiens), Q9HCT0 | recombinant FGF22 thermal shift, SYPRO orange fluorescence; percent of sucrose octasulfate shift, DMSO zero;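 active = melting point raised past a set limit in the mean and every replicate; inconclusive = no clear call; three in four hits are not shown here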
# Target sequence (Q9HCT0 whole entry, looked up): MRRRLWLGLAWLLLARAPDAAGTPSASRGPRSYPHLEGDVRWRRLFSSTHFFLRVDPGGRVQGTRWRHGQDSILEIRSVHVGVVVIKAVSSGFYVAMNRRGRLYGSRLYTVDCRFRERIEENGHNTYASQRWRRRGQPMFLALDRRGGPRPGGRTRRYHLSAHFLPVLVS
# Ecoli growth: E. coli growth inhibition, primary screen, OD600; Escherichia coli growth, 23 h; stronger effect = lower value; hit rate 0.21% among 330,000; AID 1053175, 2014; OD600 absorbance (test concentration not listed);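 active = OD600 absorbance below the run mean of sample wells minus 3.6 SD, in any replicate, cut at about 0.56 in these data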;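 also: stock transfer was 300 nL into about 60 µL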
# rRNA inh HTS OD600: second read-out of rRNA inh HTS, no call of its own (marks repeat the call); OD600 change, %; measured here: OD600 growth;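 optical density of the mix in the first replicate; 0 = DMSO median and -100 = no signal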
# rRNA inh HTS RFP: also measured in rRNA inh HTS; calls as there; RFP signal change, %; measured here: RFP humanized mutant strains;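 first replicate; 0 = DMSO median and -100 = no signal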
# * hit, by the source's call; i = inactive; ? = inconclusive; . = no result given.
SMILES,HNF4A DNA FP,ALR H2O2 inh,AF4-AF9 inh,Vif A3G,rRNA inh HTS,rRNA inh HTS OD600,rRNA inh HTS RFP,FGF22 binding,Ecoli growth
COCCNC(=O)CN1C(=O)CC(C)(C)S(=O)(=O)c2ccccc21,-1.4,.,-2.3,?,8,10,0.2,i,0.75
CC(C)n1c(-c2ccccc2)nc(=S)c2c1CCCC2,.,-8,-3.1,-3%,10,12,2.2,i,0.71
Cc1cc(C)c2c(=O)[nH]c(SCC(=O)NCc3ccccc3)nc2n1,0.6,-4,-57,24%,2,-2,-4.0,i,0.69
CN1CCN(S(=O)(=O)c2ccc(Nc3ccc(F)cc3)nc2)CC1,-1.0,-3,6.6,5%,8,12,-0.7,i,0.67
C[C@H](O)C#Cc1ccc2c(c1)O[C@@H](CN(C)C(=O)Cc1ccccn1)[C@H](C)CN([C@H](C)CO)S2(=O)=O,.,.,-1.3,.,6,0,-2.6,i,.
O=C(NCc1ccc(F)cc1)c1c2c(nc3ccccc13)CCC2,-13,-2,2.4,6%,3,5,3.7,i,0.7
CCOc1ccc(C(=O)CCc2nc3ccccc3s2)cc1,0.4,-4,.,4%,.,.,.,.,0.71
O=C(NN1CCCCC1)c1ccccc1,-3.4,-1,-3.0,.,2,5,-3.8,i,0.67
CCOC(=O)CSc1ccc(C(=O)NCCN2CCOCC2)cc1[N+](=O)[O-],0.4,3,2.8,-10%,9,10,3.6,i,0.67
COc1cccc(C2c3[nH]c4ccccc4c3C[C@H]3C(=O)N(C4CCN(Cc5ccccc5)CC4)CC(=O)N23)c1 (stereo partly drawn),1.4,19,12,-6%,5,7,31,i,0.7
Cc1ccc(C(=O)Nc2cccc(C(=O)N/N=C/c3ccc(O)cc3)c2)cc1,0.6,.,3.8,.,-15,-6,3.1,i,.
Cn1c(=O)c2c(nc(SCc3ccccc3)n2Cc2ccc(Cl)cc2)n(C)c1=O,1.0,-8,.,-6%,.,.,.,.,0.77
COCCNc1nc2c(c(=O)n(Cc3cccc(Br)c3)c(=O)n2C)n1C,1.2,-3,5.2,1%,0,-3,-0.4,i,0.69
CC1CCCN(Cc2cnc(Cl)s2)C1 (stereo not drawn),-3.2,-4,.,-2%,.,.,.,.,0.75
COc1ccccc1N(C)S(=O)(=O)c1ccc(C(=O)Nc2nc(C)cs2)cc1,1.8,33,3.8,0%,-44,-44,-16,i,0.66
CCn1c(-c2cc(-c3ccc(C)cc3)nc3ccccc23)n[nH]c1=S,3.8,.,-1.6,-7%,-29,-24,3.7,i,0.71
CCOC(=O)[C@]12CCCC=C1N(CCC1=CCCCC1)C(=O)[C@H](CC(=O)N1CCC(c3ccccc3)CC1)C2,1.3,.,0.3,.,21,3,9.1,i,.
COCCNC(=O)C[C@H]1CC[C@@H]2[C@H](COC[C@@H](O)CN2S(=O)(=O)c2ccccc2C)O1,.,.,-1.6,.,-1,-6,-2.1,i,.
COc1ccc(CN(C)C[C@@H]2Oc3ccc(NC(=O)Nc4ccc(C(F)(F)F)cc4)cc3C(=O)N([C@@H](C)CO)C[C@H]2C)cc1,.,.,2.3,.,-25,-46,14,i,.
O=[N+]([O-])c1ccc(NC(=S)NCCc2ccc(F)cc2)cc1,0.6,.,6.2,.,-51,-78,-32,i,0.46*
COc1ccc(C(=O)NC(=S)N(Cc2ccccc2)Cc2ccccc2)cc1,-0.1,-18,.,-3%,.,.,.,.,0.72
O=C(/C=C/c1ccc(Cl)cc1Cl)Nc1cccc(S(=O)(=O)NC2=NCCCCC2)c1,3.2,-13,?,2%,-17,-7,-4.1,i,0.66
Cc1cc(C(=O)OCCO)c(C#N)c(N)n1,1.5,9,.,3%,.,.,.,.,0.76
COc1ccc(NC(=O)N(C)C[C@H]2Oc3ccc(NC(=O)NC(C)C)cc3CC(=O)N([C@H](C)CO)C[C@H]2C)cc1,.,.,-13,.,6,10,-0.8,i,.
COc1ccc(-n2nc3c(c2NC(=O)c2ccco2)CS(=O)(=O)C3)cc1,1.4,-6,0.2,28%,6,12,-1.6,i,0.71
COc1ccccc1NC(=O)N[C@@H]1CC[C@H](CCn2cc(-c3ccccc3OC)nn2)O[C@H]1CO,.,.,2.9,.,0,-2,3.5,i,.
O=C(c1[nH]c(C(F)(F)F)nc1-c1ccccc1)N1CCN(c2ccccc2)CC1,1.4,.,-1.6,.,-17,-11,-2.6,i,.
CC(C)N(C(=O)[C@H]1C[C@H](CC(=O)NCCCn2ccnc2)C(=O)N2CCc3c([nH]c4ccc(Cl)cc34)[C@]12C)C(C)C,0.9,.,9.8,.,-33,-69,1.6,i,0.68
CCOC(=O)C(C)N1c2cccc3cccc(c23)S1(=O)=O (stereo not drawn),-4.4,.,-0.1,-2%,-2,-12,-9.3,i,.
Cc1cc(C)c(S(=O)(=O)Nn2cnnc2)c(C)c1,-4.4,-3,-1.0,11%,16,17,3.2,i,0.7

# Profiles from above.
# `CCOC(=O)[C@]12CCCC=C1N(CCC1=CCCCC1)C(=O)[C@H](CC(=O)N1CCC(c3ccccc3)CC1)C2` is listed as HNF4A DNA FP: 1.3; ALR H2O2 inh: .; AF4-AF9 inh: 0.3; Vif A3G: .; rRNA inh HTS: 21; rRNA inh HTS OD600: 3; rRNA inh HTS RFP: 9.1; FGF22 binding: i; Ecoli growth: .
# `CCOc1ccc(C(=O)CCc2nc3ccccc3s2)cc1` is listed as HNF4A DNA FP: 0.4; ALR H2O2 inh: -4; AF4-AF9 inh: .; Vif A3G: 4%; rRNA inh HTS: .; rRNA inh HTS OD600: .; rRNA inh HTS RFP: .; FGF22 binding: .; Ecoli growth: 0.71

# The list continues.
SMILES,HNF4A DNA FP,ALR H2O2 inh,AF4-AF9 inh,Vif A3G,rRNA inh HTS,rRNA inh HTS OD600,rRNA inh HTS RFP,FGF22 binding,Ecoli growth
O=C(Nc1ccccc1C(=O)O)c1ccc(NC(=O)C2CCCCC2)cc1,3.6,17,-12,4%,0,7,-0.6,i,0.73
O=c1nc(N2CCCC2)nc(N2CCCC2)[nH]1,0.4,-15,-0.1,.,8,11,-1.2,i,0.68
COc1cc(OC)cc(C(=O)NCC(=O)OCC(=O)NC(C)(C)C)c1,-2.4,4,2.8,.,14,9,2.8,i,0.69
Cc1ccc(C(=O)c2cc3ccccc3o2)cc1C,-0.8,.,.,-2%,.,.,.,.,0.73
O=C(CSc1ccsc1[N+](=O)[O-])N1CCN(c2ccc(Cl)cc2)CC1,-6.8,-1,.,8%,.,.,.,.,0.7
CCOC(=O)C1CCCN(C(=O)Cn2nc(C)n3nc(-c4ccccc4)cc3c2=O)C1 (stereo not drawn),4.0,-11,-5.2,-2%,-1,1,-2.0,i,0.71
FC(F)(F)c1nnc(-c2ccccc2)nc1Oc1ccc(Cl)cc1Cl,0.7,16,.,6%,.,.,.,.,0.7
N#CC1(NC(=O)COc2ccccc2[N+](=O)[O-])CCCCC1,-0.7,55,0.6,10%,0,-3,-0.1,i,0.6
COc1ccc(C(=O)CSc2[nH]c(=O)cc(C(F)(F)F)c2C#N)cc1,-0.6,98*,-0.8,2%,-46,-56,-18,i,0.65
CCCC(=O)N1CCCC(C(=O)c2cccc(OC(C)C)c2)C1 (stereo not drawn),-1.0,.,3.7,-7%,-9,-10,-2.1,i,.
C(=N\Nc1nncc2ccccc12)/c1ccccn1,-0.1,-1,0.1,2%,-16,-17,6.6,i,.
COc1cc2c(cc1OC)CN(C(=O)Cn1ccccc1=O)CC2,-1.6,-9,.,.,.,.,.,.,0.8
CC(C)c1nc(NCC2CCCO2)c(C#N)c2c1COC(C)(C)C2 (stereo not drawn),1.7,-16,.,-8%,.,.,.,.,0.72
C=CCNC(=O)c1onc(CSc2ccccc2F)c1C(=O)O,-0.2,9,-4.3,?,3,7,-3.6,i,0.65
COc1ccc(OCCN2CCN(C(=O)c3ccc(OC)c(OC)c3)CC2)cc1,3.0,-15,1.2,.,0,5,-1.9,i,0.63

# 5 entries from above, sorted by the number in AF4-AF9 inh, lowest first.
SMILES	AF4-AF9 inh
O=C(Nc1ccccc1C(=O)O)c1ccc(NC(=O)C2CCCCC2)cc1	-12
COc1ccc(C(=O)CSc2[nH]c(=O)cc(C(F)(F)F)c2C#N)cc1	-0.8
C(=N\Nc1nncc2ccccc12)/c1ccccn1	0.1
N#CC1(NC(=O)COc2ccccc2[N+](=O)[O-])CCCCC1	0.6
CCCC(=O)N1CCCC(C(=O)c2cccc(OC(C)C)c2)C1 (stereo not drawn)	3.7

# (more compounds)
SMILES,HNF4A DNA FP,ALR H2O2 inh,AF4-AF9 inh,Vif A3G,rRNA inh HTS,rRNA inh HTS OD600,rRNA inh HTS RFP,FGF22 binding,Ecoli growth
CC1SCC(=O)N(CC(=O)Nc2ccc3c(c2)OCO3)C1=O (stereo not drawn),1.5,12,-3.9,.,.,.,.,i,0.73
CCCCc1c(-c2ccccc2OC)ncn1Cc1ccc(C)cc1,.,.,15,.,-56,-79,-17,i,.
CC(C)c1cccc(C(C)C)c1OCCCCCN1CCOCC1,2.3,3,4.1,.,-47,-56,-12,i,0.65
C[C@@H]1CN([C@@H](C)CO)S(=O)(=O)c2ccc(/C=C/c3ccccc3)cc2O[C@@H]1CN(C)C(=O)c1ccncc1,.,.,11,.,3,1,-4.7,i,.
CCNC(=O)NC(=O)C(C)N1C(=O)NC(c2ccccc2)(c2ccccc2)C1=O (stereo not drawn),-1.8,-4,1.0,0%,0,-3,-0.1,i,0.71
Cc1ccccc1NC(=O)CN1C(=O)S/C(=C\c2cccn2-c2cccc(C(=O)O)c2)C1=O,-7.4,7,.,31%,.,.,.,.,0.82
Cn1cnnc1SCC(=O)Nc1ccc2nc(SCc3ccccc3)sc2c1,0.6,.,.,1%,.,.,.,.,0.7
O=C(N/C(=C/c1ccc(Cl)cc1)C(=O)N1CCCCC1)c1ccco1,0.7,-1,-5.8,.,-20,-19,2.5,i,0.68
O=C(Nc1ccc(OC(F)(F)F)cc1)c1cc(S(=O)(=O)N2CCCCC2)ccc1N1CCOCC1,-1.2,.,-0.2,-1%,-2,-1,-3.4,i,.
Cc1ccc(Nc2nc(NCC3CCCO3)nc(N)c2[N+](=O)[O-])cc1C (stereo not drawn),-6.5,-1,7.0,2%,10,9,1.4,i,0.66
CC(=O)Nc1ccc(S(=O)(=O)N(C)CC(=O)OCC(=O)Nc2cccnc2Cl)cc1,-2.6,-1,.,6%,.,.,.,.,0.64
CNC[C@@H]1OCCCC[C@@H](C)Oc2ccc(NC(=O)C3CCCCC3)cc2C(=O)N([C@@H](C)CO)C[C@H]1C,.,.,-16,.,4,1,1.2,i,.
O=C(NC1C2CC3CC(C2)CC1C3)c1ccc(Br)o1 (stereo not drawn),-3.1,-5,-0.6,.,-1,0,4.2,i,0.69
O=C(Nc1cccc2ncccc12)c1ccccc1[N+](=O)[O-],-3.4,-11,3.7,.,24,16,4.4,i,0.68
CCCCc1ccc(NC(=S)N2CCCC2)cc1,-1.4,1,-1.7,.,-9,-32,-1.6,i,0.62

# Two neighbouring compounds from above, quoted:
SMILES,HNF4A DNA FP,ALR H2O2 inh,AF4-AF9 inh,Vif A3G,rRNA inh HTS,rRNA inh HTS OD600,rRNA inh HTS RFP,FGF22 binding,Ecoli growth
O=C(Nc1cccc2ncccc12)c1ccccc1[N+](=O)[O-],-3.4,-11,3.7,.,24,16,4.4,i,0.68
CCCCc1ccc(NC(=S)N2CCCC2)cc1,-1.4,1,-1.7,.,-9,-32,-1.6,i,0.62

# These rows are one share of the data, so the mix of outcomes need not match the whole.
